RE007 growth inh – qHTS Assay for Inhibitors of the HIV-1 protein Vpr. S. pombe RE007 Vpr strain, BacTiter-Glo ATP luminescence, 24 h; control for the full effect not named in the record. AID 651644, 2012. 0.21% of 360,000 active. Potency, µM (highest dose often 92.2 µM), for the others: at the top dose activity change, negative = less growth; active = well fitted falling curve with a large enough effect; inconclusive = small, poorly fitted or top-dose-only effect; inactive = no such curve, though single readings can be large or run the other way;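 note: % is set by controls: 0 for no effect and ±100 for the full control effect; nearly all actives have a fitted effect of over 50% in size; the assay follows cell death caused by Vpr and the record does not say whether a fall means rescue or toxicity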
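Fission yeast RE007 carrying one integrated HIV-1 vpr copy, seeded at OD 0.01 in PMG+AL medium with 23 nL pinned compound. Grown 24 h at 30 degrees; viability read by BacTiter-Glo luminescence after 5 min.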
MARV entry inh – qHTS for inhibitors of binding or entry into cells for Marburg Virus; Marburg virus pseudotyped entry inhibition, cell reporter; control for the full effect not named in the record; about a third of the inactives were read at about 46 µM; Potency, µM (titrated, usually from 37.8 µM), without a hit: top-dose activity change, negative = inhibition, hits mostly inhibitors; 1.8% of 300,000 active; active = well fitted inhibition curve with a large enough effect; inconclusive = small, poorly fitted or top-dose-only effect, or effect the other way; inactive = flat fitted curve, though single readings scatter; tested in HEK293 cells; about a fifth of its hits are not listed in these tables; note: % is set by controls: 0 for no effect and ±100 for the full control effect; luciferase read-out
Cruzain inh noDet – qHTS Assay for Promiscuous and Specific Inhibitors of Cruzain (without detergent); Potency, µM, for inactives: max response, negative = inhibition, actives largely listed as inhibitors; purified cruzain, Z-FR-AMC fluorescence, no detergent; 2.3% of 200,000 active; AID 1476, 2009; Cruzipain (Trypanosoma cruzi), P25779; active = well fitted curve in the direction sought with a large enough effect; inconclusive = small, poorly fitted or top-dose-only effect, or another doubt; inactive = no such curve, though single readings can be large; an effect the other way counts as inactive or inconclusive;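 note: plate controls were enzyme without inhibitor for no effect and buffer without enzyme for full effect; nearly all actives have a fitted effect of over 40% in size; top concentration of the series not given in the record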
Target sequence (P25779 123-467 limits assumed): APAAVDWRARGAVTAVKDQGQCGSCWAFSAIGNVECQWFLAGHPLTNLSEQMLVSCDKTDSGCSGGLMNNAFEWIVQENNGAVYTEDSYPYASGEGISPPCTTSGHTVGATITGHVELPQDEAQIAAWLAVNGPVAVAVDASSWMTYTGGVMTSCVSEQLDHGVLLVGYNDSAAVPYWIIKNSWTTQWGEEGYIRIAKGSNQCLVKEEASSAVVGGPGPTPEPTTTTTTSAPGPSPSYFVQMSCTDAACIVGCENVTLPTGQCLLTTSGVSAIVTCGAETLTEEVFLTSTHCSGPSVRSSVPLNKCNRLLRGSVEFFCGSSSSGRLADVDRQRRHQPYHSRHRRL
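Purified cruzain at 1.5 nM, pre-incubated 15 min with compound at room temperature in 100 mM sodium acetate pH 5.5, 5 mM DTT, 0.00005% Triton X-100. Reaction started with 2 uM Z-FR-AMC; AMC fluorescence increase over 60 s gives rate.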
Cruzain Triton – qHTS Assay for Promiscuous and Specific Inhibitors of Cruzain (with detergent); Cruzipain (Trypanosoma cruzi), P25779; purified cruzain, Z-FR-AMC fluorescence, 0.01% Triton; Potency, µM, without a hit: max response, negative = inhibition, usual class: inhibitors; 0.43% of 200,000 active; active = well fitted curve in the direction sought with a large enough effect; inconclusive = small, poorly fitted or top-dose-only effect, or another doubt; inactive = no such curve, though single readings can be large; an effect the other way counts as inactive or inconclusive;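 note: plate controls were neutral wells for no effect and buffer without enzyme for full effect; nearly all actives have a fitted effect of over 40% in size; top concentration of the series not given in the record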
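Purified cruzain (1.5 nM final) was preincubated with compounds for 15 min at room temperature in 100 mM sodium acetate pH 5.5, 5 mM DTT, 0.01% Triton X-100. Reaction started with 2 uM Z-FR-AMC; AMC fluorescence change over 60 s gave activity.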
SARS PLP yeast – qHTS of Yeast-based Assay for SARS-CoV PLP; S. cerevisiae expressing SARS-CoV PLpro, growth rescue; control for the full effect not named in the record; Potency, µM (highest dose often 32.9 µM), inactives show at the highest dose activity, positive = growth rescue; 0.19% of 330,000 active; AID 485353, 2010; note: 0% is about no effect; nearly all actives have a fitted effect of over 55% in size; growth read by luminescence after 48 h
NS1 inh – qHTS Assay for Inhibitors of Influenza NS1 Protein Function | 0.4% of 270,000 active | AID 2326, 2010 | Potency, µM (doses to about 46.1 µM), for inactives: top-dose activity, positive = more growth | S. cerevisiae slowed by influenza A NS1, growth recovery by OD600; note: actives are rising curves; nearly all actives have a fitted effect of over 50% in size
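Growth recovery, yeast-based: influenza A NS1 expressed in S. cerevisiae causes slow growth, and suppressors are detected by OD600. The parent strain without NS1 is used as positive control.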
StopGo reporter – High Throughput Screening for Foot and Mouth Disease Virus Antivirals. 1.2% of 410,000 active. Potency, µM (titrated, usually from 57.9 µM), inactives show at the highest dose signal change, negative = less light. human cells with a luciferase reporter of 2A StopGo recoding; control for the full effect not named in the record; active = well fitted falling curve with a large enough effect; inconclusive = small, poorly fitted or top-dose-only effect; inactive = no such curve, though single readings can be large or run the other way; tested in HEK293T cells; note: % is set by controls: 0 for no effect and ±100 for the full control effect; nearly all actives have a fitted effect of over 45% in size; luciferase light after 4 h
LASV entry inh – qHTS for Inhibitors of binding or entry into cells for Lassa Virus; Potency, µM (highest dose often 37.9 µM), without a hit: at the highest dose activity change, negative = inhibition, usual class: inhibitors; 1.2% of 300,000 active; AID 540256, 2011; Lassa virus pseudotype entry inhibition, cell reporter; control for the full effect not named in the record; active means well fitted inhibition curve with a large enough effect; inconclusive means small, poorly fitted or top-dose-only effect, or effect the other way; inactive means flat fitted curve, though single readings scatter; tested in HEK293 cells; note: % is set by controls: 0 for no effect and ±100 for the full control effect; nearly all actives have a fitted effect of over 50% in size; luciferase read-out
* = called active by the depositor; & = joins results of further samples; [ ] = another dose, or the depositor's remark. Unless noted, calls come from the whole dose curve; as a rule, active means well fitted rising curve with a large enough effect; inconclusive means small, poorly fitted or top-dose-only effect; inactive means no such curve, though single readings can be large or run the other way. Potency is the fitted concentration of half-maximal effect.

Results for CNC(=S)N1N=C(c2ccccc2)CC1c1ccccc1Cl (centres undefined) ?
RE007 growth inh: 7.0%; MARV entry inh: inconclusive; SARS PLP yeast: 1.0%; NS1 inh: -3.5%; StopGo reporter: -19.1%; LASV entry inh: inconclusive

Results for N#Cc1ccccc1OCC(=O)Nc1ccc(S(=O)(=O)N2CCOCC2)cc1 ?
RE007 growth inh: -7.9%; MARV entry inh: 12.3%[46.1 µM]; SARS PLP yeast: -3.7%; StopGo reporter: -22.5%; LASV entry inh: -9.7%[46.1 µM]

Results for O=S(=O)(Nc1nc2n(n1)C(c1ccc(F)cc1)C=C(c1ccccc1)N2)c1ccc(Cl)cc1 (centres undefined) ?
MARV entry inh: 12.7%[46.1 µM]; Cruzain inh noDet: inconclusive; Cruzain Triton: -6.8%; StopGo reporter: -14.8%; LASV entry inh: 2.8%[46.1 µM]

What do the screens show for `COc1ccc2nc3cc(Cl)ccc3c(C#N)c2c1`?
RE007 growth inh: -17.0%; MARV entry inh: -1.3%[46.1 µM]; SARS PLP yeast: -1.2%; NS1 inh: 0.2%; StopGo reporter: 12.2%; LASV entry inh: 25.2%

Results for OCCC1CN(Cc2ccccn2)CCN1C1CCCC1 (centres undefined) ?
RE007 growth inh: 2.3%; MARV entry inh: 7.7%[46.1 µM]; SARS PLP yeast: 0.6%; NS1 inh: -4.5%; StopGo reporter: 14.5%; LASV entry inh: -6.0%

Results for Cc1cccc(C)c1Nc1c(-c2ccc(O)cc2)nc2sccn12 ?
MARV entry inh: -13.7%[46.1 µM]; Cruzain inh noDet: -15.4%; Cruzain Triton: -22.1%; StopGo reporter: 0.0%; LASV entry inh: -5.4%[46.1 µM]

How did CN(CC(=O)Nc1ccc(OC(F)(F)F)cc1)C(=O)c1ccccc1SCC(=O)N1CCCC1 do in these assays?
RE007 growth inh: -11.2%; MARV entry inh: 0.2%; StopGo reporter: 49.1%[activator]; LASV entry inh: -2.9%

Results for Cc1ccc(N(C(=O)c2ccc(S(=O)(=O)N3CCOCC3)cc2)C2C=CS(=O)(=O)C2)cc1 (centres undefined) ?
RE007 growth inh: 4.5%; MARV entry inh: -9.4%&3.0%; Cruzain inh noDet: -0.6%; Cruzain Triton: 9.0%; SARS PLP yeast: 1.6%; NS1 inh: -12.0%; StopGo reporter: 14.4%; LASV entry inh: -11.6%

What do the screens show for `CCc1ccc(-c2cc(C)no2)cc1S(=O)(=O)N1CCCN(Cc2ccc(F)cc2)C1`?
RE007 growth inh: 8.8%; SARS PLP yeast: -4.5%; NS1 inh: 9.0%; StopGo reporter: 2.6%

What do the screens show for `COC(=O)c1ccc(CN(c2ccccc2Cl)S(C)(=O)=O)cc1`?
RE007 growth inh: 6.4%; MARV entry inh: inconclusive; SARS PLP yeast: 0.1%; StopGo reporter: -4.8%; LASV entry inh: inconclusive

Results for O=C(NNc1c2ccccc2nc2ccccc12)c1ccccc1Cl ?
RE007 growth inh: -9.3%; SARS PLP yeast: -4.2%; NS1 inh: -0.7%; StopGo reporter: -17.4%

How did COC(=O)c1ccc2c(=O)n3c(nc2c1)SCC(c1ccccc1)=N3 do in these assays?
RE007 growth inh: -1.0%; Cruzain inh noDet: -1.6%; Cruzain Triton: 0.4%; SARS PLP yeast: 8.9%; NS1 inh: -10.5%; StopGo reporter: 18.2%

What do the screens show for `N/C(=N\OC(=O)c1cccs1)c1ccc(Cl)cc1`?
RE007 growth inh: inconclusive; SARS PLP yeast: -19.0%; NS1 inh: -79.4%; StopGo reporter: 52.7%[activator]

How did Cn1nc(-c2ccccc2F)c2cc(C(=O)N3CCN(C(=O)c4ccco4)CC3)sc21 do in these assays?
RE007 growth inh: -0.4%; MARV entry inh: -25.3%; NS1 inh: -10.6%; StopGo reporter: inconclusive; LASV entry inh: -0.6%

Results for Cn1c(=O)c2c(-c3ccccc3)n(CCCO)cc2n(C)c1=O ?
Cruzain inh noDet: -5.0%; Cruzain Triton: 1.7%; StopGo reporter: -21.9%; LASV entry inh: -0.4%[46.1 µM]

What do the screens show for `CCCc1cc(=O)[nH]c(SCC(=O)c2cc(C)n(CC(F)(F)F)c2C)n1`?
RE007 growth inh: -1.9%; MARV entry inh: 1.6%[46.1 µM]; SARS PLP yeast: 1.3%; StopGo reporter: inconclusive

What do the screens show for `Nc1ccc(Br)c2c1C(=O)c1ccccc1C2=O`?
RE007 growth inh: -13.9%; MARV entry inh: 39.6%; Cruzain inh noDet: inconclusive; Cruzain Triton: -2.3%; SARS PLP yeast: -9.4%; NS1 inh: -93.8%; StopGo reporter: 2.3%; LASV entry inh: 1.2%

What do the screens show for `CC(=O)Nc1ccc(Nc2nnc(-c3ccc(C)c(S(=O)(=O)NCCO)c3)c3ccccc23)cc1`?
RE007 growth inh: -0.4%; SARS PLP yeast: -0.4%; NS1 inh: -19.2%; StopGo reporter: 32.0%[activator]

Results for Cc1ccc(N(CC(=O)Nc2ccc(F)cc2F)S(=O)(=O)c2cccs2)cc1 ?
MARV entry inh: 11.2%[46.1 µM]; Cruzain inh noDet: -6.6%; Cruzain Triton: -8.4%; StopGo reporter: 0.0%; LASV entry inh: inconclusive

How did N#CSCC(=O)c1cccc2ccccc12 do in these assays?
RE007 growth inh: inconclusive; MARV entry inh: inconclusive; Cruzain inh noDet: -6.5%; Cruzain Triton: -18.4%; SARS PLP yeast: -91.2%; NS1 inh: -20.4%; StopGo reporter: inconclusive; LASV entry inh: inconclusive

Results for Cc1ccc(NC(=O)CSCC(=O)N2CCN(Cc3ccc4c(c3)OCO4)CC2)cc1 ?
RE007 growth inh: 1.7%; MARV entry inh: -16.7%; SARS PLP yeast: 18.0%; NS1 inh: 5.3%; StopGo reporter: -20.2%; LASV entry inh: -14.3%

How did COC(=O)C1=C(C)[C@H](O)[C@@H](C)[C@](C)(c2cc(OC)c(C)c(OC)c2COc2ccccc2)O1 do in these assays?
MARV entry inh: inconclusive; Cruzain inh noDet: 6.2%; Cruzain Triton: 1.4%; LASV entry inh: inconclusive

What do the screens show for `CC(C)(c1ccccc1)c1ccc(OCCn2cnc3ccccc3c2=O)cc1`?
RE007 growth inh: 0.2%; MARV entry inh: -7.5%; Cruzain inh noDet: -2.5%; Cruzain Triton: -0.1%; SARS PLP yeast: -4.3%; NS1 inh: 6.3%; StopGo reporter: inconclusive; LASV entry inh: -0.1%

Results for CCOc1ccc(N2C(=O)CC(Cc3ccccc3OC)C2=O)cc1 (centres undefined) ?
RE007 growth inh: 9.5%; MARV entry inh: 14.5%; SARS PLP yeast: inconclusive; NS1 inh: 0.7%; StopGo reporter: -11.3%; LASV entry inh: 3.0%

How did Cc1c(Cl)cccc1Nc1nc(N)nc(CSC(=S)N2CCOCC2)n1 do in these assays?
RE007 growth inh: 38.0%; MARV entry inh: 5.8%[46.1 µM]; SARS PLP yeast: 1.7%; StopGo reporter: 52.4%[activator]; LASV entry inh: inconclusive

How did CC(=O)Nc1cc2c(cc1C(=O)c1ccc(C)cc1)OCCO2 do in these assays?
RE007 growth inh: -10.6%; MARV entry inh: -12.5%; Cruzain inh noDet: -2.3%; Cruzain Triton: -1.5%; NS1 inh: -7.1%; StopGo reporter: -14.0%; LASV entry inh: 0.8%

How did CC(Sc1ccccc1)C(=O)NCC(c1ccco1)N1CCCCC1 (centres undefined) do in these assays?
RE007 growth inh: -22.6%; MARV entry inh: -13.5%; SARS PLP yeast: -3.2%; StopGo reporter: -22.3%; LASV entry inh: 3.2%

What do the screens show for `O=C(O)COc1ccccc1/C=N/NC(=O)CN1CCN(Cc2ccc(Cl)cc2)CC1`?
RE007 growth inh: 5.5%; SARS PLP yeast: 1.0%; NS1 inh: 5.1%; StopGo reporter: -2.8%

What do the screens show for `Cn1cnnc1Sc1ccc(CN2CCN(C3CCCC3)C(CCO)C2)o1` (centres undefined)?
RE007 growth inh: 3.8%; SARS PLP yeast: 0.0%; NS1 inh: 8.2%; StopGo reporter: -15.8%

Results for O=C(O)COc1cccc2nsnc12 ?
RE007 growth inh: 7.2%; MARV entry inh: -0.8%; Cruzain inh noDet: -6.4%; Cruzain Triton: -0.2%; SARS PLP yeast: 18.9%; NS1 inh: inconclusive; StopGo reporter: 16.7%; LASV entry inh: 14.5%

How did COc1ccccc1N(CC(O)Cn1c2ccccc2c2ccccc21)S(=O)(=O)c1ccccc1 (centres undefined) do in these assays?
RE007 growth inh: 0.2%; MARV entry inh: inconclusive; Cruzain inh noDet: -29.7%; Cruzain Triton: 8.1%; SARS PLP yeast: -11.3%; NS1 inh: inconclusive; StopGo reporter: -19.0%; LASV entry inh: 25.9µM*

What do the screens show for `CC1(C)NC(=O)N(CCCCOc2ccc3c(c2)CCC3)C1=O`?
RE007 growth inh: -10.9%; MARV entry inh: -18.0%; Cruzain inh noDet: inconclusive; Cruzain Triton: 0.5%; SARS PLP yeast: -1.4%; NS1 inh: -24.8%; StopGo reporter: inconclusive; LASV entry inh: 9.3%

What do the screens show for `Cc1occc1-c1nnc(SCC(=O)NCc2ccco2)n1CC(C)C`?
RE007 growth inh: 8.4%; MARV entry inh: inconclusive; Cruzain inh noDet: inconclusive; Cruzain Triton: -0.4%; SARS PLP yeast: -5.6%; NS1 inh: 8.4%; StopGo reporter: 1.7%; LASV entry inh: 1.2%

Results for COc1ccc(C=NNC(=O)c2ccccc2OCc2ccc(F)cc2)c(OC)c1 ?
RE007 growth inh: -7.8%; MARV entry inh: inconclusive; SARS PLP yeast: -2.1%; StopGo reporter: 2.1%; LASV entry inh: 9.5%

How did CCCCn1cnc2sc(-c3ccccc3)cc2c1=O do in these assays?
RE007 growth inh: -14.1%; MARV entry inh: 22.7%[46.1 µM]; Cruzain inh noDet: -6.4%; Cruzain Triton: -1.8%; SARS PLP yeast: -16.9%; NS1 inh: -17.6%; StopGo reporter: 21.2%; LASV entry inh: inconclusive

How did COc1ccccc1NC(=O)CN1CCN(CC(=O)Nc2ccc(S(N)(=O)=O)cc2)CC1 do in these assays?
RE007 growth inh: 6.1%; SARS PLP yeast: 2.7%; NS1 inh: -1.6%; StopGo reporter: inconclusive

What do the screens show for `COc1ccc(OCc2csc(N)n2)cc1`?
RE007 growth inh: 4.8%; MARV entry inh: inconclusive; SARS PLP yeast: 0.4%; StopGo reporter: 48.5%[activator]; LASV entry inh: -0.4%
